Screening data as filed in PubChem BioAssay.
Bst PK mod: Pyruvate Kinase; partly purified Bacillus stearothermophilus pyruvate kinase, luminescence ATP production; ribose 5-phosphate activator present at AC10; Potency, µM; 51,000 tested, 1.2% active; AID 361, 2006; in the data active means potency below about 11 µM; inconclusive means mostly about 12 µM to 25 µM; inactive means weaker than that;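 the screen sought inhibitors and activators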;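 further: potency means the concentration at half of the fitted maximal effect; scaled between full activation by ribose 5 phosphate and full inhibition by luteolin; about four in five hits inhibit and the cells do not say which; series up to 57 µM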
YjeE inh: qHTS Assay for Inhibitors of YjeE | tRNA threonylcarbamoyladenosine biosynthesis protein TsaE (Escherichia coli (strain … | purified YjeE, fluorescence polarisation of a bound ADP probe | Potency, µM | 71,000 tested, 0.05% active; active = well fitted falling curve; inconclusive = weaker or top-dose-only fall, or a rising curve; inactive = flat or poorly fitted curve;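 further: top concentration of the series not given in the record; excess ADP was the control for the full effect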
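Fluorescence polarization of a BODIPY Texas Red–ADP probe (2 uM) bound to purified YjeE (10 uM) was read after 15 min room-temperature incubation with compounds. Loss of polarization marks inhibitors; ADP serves as titrated control.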
* hit, by the source's call.

Results for O=C(C1CC1c1ccccc1)N1CCN(c2cccc(Cl)c2)CC1 (centres undefined) ?
Bst PK mod: >57; YjeE inh: inactive

What do the screens show for `Cc1cnc(C(=O)Nc2ccc(N3CCN(C(=O)OC(C)(C)C)CC3)cc2)cn1`?
Bst PK mod: >57; YjeE inh: inactive

What do the screens show for `O=C(Nc1nccs1)c1ccc(S(=O)(=O)N2CCCCC2)cc1`?
YjeE inh: inactive

What do the screens show for `O=C(c1cn(-c2ccccc2)nc1-c1ccncc1)N1CCCCC1`?
Bst PK mod: >57; YjeE inh: inactive

How did CCOC(=O)Cc1[nH]nc2c1C(C1C=CCCC1)C(C#N)=C(N)O2 (centres undefined) do in these assays?
Bst PK mod: >57; YjeE inh: inactive

What do the screens show for `COc1ccc(OCCSc2nnc3sc4ccccc4n23)cc1`?
Bst PK mod: >57; YjeE inh: inactive

Results for COc1ccc(C(=O)Nc2nc(C)c(C(=O)N(C)C)s2)cc1OC ?
YjeE inh: inactive

What do the screens show for `O=C(Nc1cccc(Cl)c1)N1CCN(Cc2ccccc2)CC1`?
YjeE inh: inactive

What do the screens show for `c1cncc(-c2nc3cc(Cc4ccc5oc(-c6cccnc6)nc5c4)ccc3o2)c1`?
Bst PK mod: >57; YjeE inh: inactive

What do the screens show for `COc1cc(-c2nnc3sc(-c4ccncc4)nn23)cc(OC)c1OC`?
YjeE inh: inactive

Results for COc1cc(OC)cc(C(=O)NCc2cccnc2)c1 ?
Bst PK mod: >57; YjeE inh: inactive

How did Cc1ccc(S(=O)(=O)NCc2ccncc2)cc1 do in these assays?
Bst PK mod: >57; YjeE inh: inactive

What do the screens show for `Cc1nccn1CC(O)COC1CCCCC1` (centres undefined)?
Bst PK mod: >57; YjeE inh: inactive

What do the screens show for `CC(=O)c1cc2c(cc1NS(=O)(=O)c1ccc3c(c1)OCCO3)OCO2`?
Bst PK mod: >57; YjeE inh: inactive

Results for CC(C)n1c(-c2ccco2)csc1=Nc1cccnc1 ?
Bst PK mod: >57; YjeE inh: inactive

How did COc1cccc(C2C(C#N)=C(N)Oc3cc(C)n(Cc4ccccn4)c(=O)c32)c1OC (centres undefined) do in these assays?
Bst PK mod: >57; YjeE inh: inactive

What do the screens show for `c1ccc(Cc2nnc3n2CCCCC3)cc1`?
Bst PK mod: >26

What do the screens show for `CCc1cc2c(=O)n(C(C)C(=O)OC3CCCCC3)cnc2s1` (centres undefined)?
Bst PK mod: >57; YjeE inh: inactive

Results for CC(C)c1[nH]nc2c1C(c1cccnc1)C(C#N)=C(N)O2 (centres undefined) ?
Bst PK mod: >57; YjeE inh: inactive

Results for CC(C)n1c(N2CCN(C(=O)N3CCCCC3)CC2)nc2ccccc21 ?
Bst PK mod: >57; YjeE inh: inactive

Among those listed so far, 8 contain sulfur.
What do the screens show for `O=C(Nc1nccs1)c1ccc(S(=O)(=O)N2CCCCC2)cc1`?
YjeE inh: inactive

What do the screens show for `COc1ccc(OCCSc2nnc3sc4ccccc4n23)cc1`?
Bst PK mod: >57; YjeE inh: inactive

Results for COc1ccc(C(=O)Nc2nc(C)c(C(=O)N(C)C)s2)cc1OC ?
YjeE inh: inactive

What do the screens show for `COc1cc(-c2nnc3sc(-c4ccncc4)nn23)cc(OC)c1OC`?
YjeE inh: inactive

How did Cc1ccc(S(=O)(=O)NCc2ccncc2)cc1 do in these assays?
Bst PK mod: >57; YjeE inh: inactive

What do the screens show for `CC(=O)c1cc2c(cc1NS(=O)(=O)c1ccc3c(c1)OCCO3)OCO2`?
Bst PK mod: >57; YjeE inh: inactive

Results for CC(C)n1c(-c2ccco2)csc1=Nc1cccnc1 ?
Bst PK mod: >57; YjeE inh: inactive

What do the screens show for `CCc1cc2c(=O)n(C(C)C(=O)OC3CCCCC3)cnc2s1` (centres undefined)?
Bst PK mod: >57; YjeE inh: inactive

New compounds follow:
How did CN(C)c1cccc(C(=O)Nc2cccc(F)c2)c1 do in these assays?
YjeE inh: inactive

How did COc1ccc(-c2nnn(CC(=O)OC3CCCCC3)n2)cc1OC do in these assays?
Bst PK mod: >57; YjeE inh: inactive

Results for O=C(CSc1nc2ccccc2[nH]1)NCCCn1ccnc1 ?
Bst PK mod: >57; YjeE inh: inactive

What do the screens show for `CN(C)C(=O)/N=N\C(=O)N(C)C`?
YjeE inh: inactive

What do the screens show for `Cc1c(N2C(=O)C(C)SC23C(=O)Nc2ccccc23)c(=O)n(-c2ccccc2)n1C` (centres undefined)?
Bst PK mod: >57; YjeE inh: inactive

How did Cn1c(N)c(C#N)c(C#N)c1-c1ccccc1 do in these assays?
Bst PK mod: >11

What do the screens show for `CN(C)Cc1cc(C(F)(F)F)ccc1C(O)(c1ccccc1)c1ccccc1`?
YjeE inh: inactive

Results for Cc1nnc(NC(=O)c2ccco2)s1 ?
YjeE inh: inactive

How did CCn1c(N)c(C(=O)NC2CCCCC2)sc1=S do in these assays?
Bst PK mod: >57; YjeE inh: inactive

How did O=C(Nc1ccc(F)c(F)c1)c1ccc2c(c1)OCO2 do in these assays?
YjeE inh: inactive

Some of these compounds in order of molecular weight, rising:
How did Cn1c(N)c(C#N)c(C#N)c1-c1ccccc1 do in these assays?
Bst PK mod: >11

How did O=C(Nc1ccc(F)c(F)c1)c1ccc2c(c1)OCO2 do in these assays?
YjeE inh: inactive

How did COc1ccc(-c2nnn(CC(=O)OC3CCCCC3)n2)cc1OC do in these assays?
Bst PK mod: >57; YjeE inh: inactive

Carrying on.
What do the screens show for `COc1ccccc1C(=O)NCCn1cc(SCC(=O)Nc2nnc(C)s2)c2ccccc21`?
Bst PK mod: >57; YjeE inh: inactive

Results for COc1ccc(CCN2C(=O)C3C4C=CC(C4)C3C2=O)cc1OC (centres undefined) ?
Bst PK mod: >57; YjeE inh: inactive

What do the screens show for `NNC(=O)[C@@H](O)[C@H](O)C(=O)NN`?
YjeE inh: inactive

What do the screens show for `CC(=O)N1CCC2(CC1)CN(c1ccncc1)C2`?
YjeE inh: inactive

How did COC(=O)CSc1nnc(-c2cnccn2)n1C do in these assays?
Bst PK mod: >57; YjeE inh: inactive

How did COc1ccc(CNC(=O)CN(CC2CCCO2)C(=O)CNS(=O)(=O)c2ccccc2)cc1 (centres undefined) do in these assays?
Bst PK mod: >57; YjeE inh: inactive

Results for CCc1c(O)nc(SCC(=O)Nc2ccccc2)n(-c2ccccc2)c1=O ?
Bst PK mod: >57; YjeE inh: inactive

Results for COc1ccc(C2C(C(=O)Nc3cccc(C)n3)CCC(=O)N2c2ccc(OC)cc2)cc1 (centres undefined) ?
Bst PK mod: >57; YjeE inh: inactive

What do the screens show for `COc1cccc(CN2CCNC(=O)C2CC(=O)O)c1OC` (centres undefined)?
YjeE inh: inactive

What do the screens show for `O=c1c(-c2ccccc2)nc2cncnc2n1C1CC1`?
YjeE inh: inactive

What do the screens show for `O=C(Cc1n[nH]c(=O)c2ccccc12)OCC(=O)c1ccc2c(c1)OCCO2`?
YjeE inh: inactive

Results for O=C(Nc1ccc(Br)cc1)N1CCCCCCC1 ?
Bst PK mod: >57; YjeE inh: inactive

Results for c1csc(CSc2nc3ccccc3s2)c1 ?
Bst PK mod: >57; YjeE inh: inactive

Results for Cc1ccc(-c2nn(C)c(=O)c3ccccc23)cc1S(=O)(=O)N1CCOCC1 ?
Bst PK mod: >57; YjeE inh: inactive

How did O=C(CN(Cc1ccco1)C(=O)CCC(=O)Nc1ccccn1)NCCc1ccccc1 do in these assays?
Bst PK mod: >57; YjeE inh: inactive

Results for Cc1cc(N2C(=O)C(=O)/C(=C(/O)c3ccccc3)C2c2cccc(Br)c2)no1 (centres undefined) ?
Bst PK mod: >26

What do the screens show for `CCn1c(SCC(=O)Nc2ccccc2F)nc2c(c1=O)SC(C)C2` (centres undefined)?
Bst PK mod: >57; YjeE inh: inactive

What do the screens show for `Cc1ccc(C(C(=O)NC2CCCCC2)N(CC2CCCO2)C(=O)CNC(=O)c2ccco2)cc1` (centres undefined)?
Bst PK mod: >57; YjeE inh: inactive

How did O=C(Nc1nnc(CC(=O)N2CCOCC2)s1)C1COc2ccccc2O1 (centres undefined) do in these assays?
Bst PK mod: >57; YjeE inh: inactive

How did O=C(O)CNC(=O)C1COc2ccccc2O1 (centres undefined) do in these assays?
Bst PK mod: >57; YjeE inh: inactive

Results for O=C(Oc1ccccc1)c1cccc2cccnc12 ?
Bst PK mod: inactive; YjeE inh: inactive

What do the screens show for `[O-][N+](=Nc1ccccc1)c1ccccc1`?
YjeE inh: inactive

How did c1ccc(-n2nnnc2NCCc2c[nH]c3ccccc23)cc1 do in these assays?
Bst PK mod: >57; YjeE inh: inactive

Results for CC(=O)N1CCc2cc(S(=O)(=O)NCCC(=O)Nc3ccc4c(c3)OCCO4)ccc21 ?
YjeE inh: inactive

How did O=S(=O)(Nc1ncn[nH]1)c1ccc2ccccc2c1 do in these assays?
Bst PK mod: inactive; YjeE inh: inactive

Results for CCOC(=O)Cn1c(=NC(=O)CSC(C)=O)sc2cc(OC)ccc21 ?
Bst PK mod: >57; YjeE inh: inactive

What do the screens show for `CC(C)(C)NS(=O)(=O)c1cccc2nsnc12`?
Bst PK mod: >57; YjeE inh: inactive

Results for Cc1cc(C)c(NC2=NCC(=O)N2C2CCCCC2)c(C)c1 ?
Bst PK mod: >57; YjeE inh: inactive

How did CN(C(=O)c1ccncc1)c1nnc(-c2ccccn2)s1 do in these assays?
Bst PK mod: >57; YjeE inh: inactive

Results for CCc1ccccc1NC(=O)CSc1nnc(-c2ccco2)n1N ?
Bst PK mod: >57; YjeE inh: inactive

Results for CCc1ccc(N2CCN(C(=O)c3ccc(OC)c(OC)c3)CC2)cc1 ?
YjeE inh: inactive

What do the screens show for `CC(C)C(=O)NC(c1ccco1)c1ccc2cccnc2c1O` (centres undefined)?
YjeE inh: inactive

How did O=C(CN1C(=O)c2ccccc2S1(=O)=O)Nc1ccc(S(=O)(=O)N2CCCC2)cc1 do in these assays?
Bst PK mod: >57; YjeE inh: inactive

How did COc1ccccc1-c1ccc(C(=O)O)o1 do in these assays?
Bst PK mod: >57; YjeE inh: inactive

How did Cc1cc2c(s1)c1cnn(CC(=O)NCCc3ccccc3)c(=O)c1n2C do in these assays?
Bst PK mod: >57; YjeE inh: inactive

How did Cc1cc(C)cc(N2CC34C=CC(O3)C(C(=O)OCC(=O)NCc3ccco3)C4C2=O)c1 (centres undefined) do in these assays?
Bst PK mod: >57; YjeE inh: inactive

Results for O=C(Cn1cnc2c(cnn2-c2ccc(Cl)cc2)c1=O)NCCc1ccccc1 ?
Bst PK mod: >57; YjeE inh: inactive

What do the screens show for `Cc1cc(C(=O)CSc2nnc(-c3cccs3)o2)c(C)n1-c1ccccc1`?
Bst PK mod: >11; YjeE inh: inactive

Results for O=C(O)CCC(=O)c1ccc(Cl)cc1 ?
YjeE inh: inactive

What do the screens show for `CC1CC(=O)C2=C(C1)Nc1ncnn1C2c1ccccc1` (centres undefined)?
Bst PK mod: >57; YjeE inh: inactive

What do the screens show for `Cc1cc(C(=O)Nc2c(F)cc(F)cc2Br)c(C)o1`?
Bst PK mod: >57; YjeE inh: inactive

What do the screens show for `COC(=O)C1=C(C)NC(=O)CC1c1ccc(C(=O)OC)cc1` (centres undefined)?
YjeE inh: inactive

Results for O=C1C2C3c4ccccc4C(c4ccccc43)C2C(=O)N1Cc1ccco1 (centres undefined) ?
YjeE inh: inactive

How did COCc1cc(=O)[nH]c(/N=C(\N)Nc2ccc(Oc3ccccc3)cc2)n1 do in these assays?
Bst PK mod: >57; YjeE inh: inactive

What do the screens show for `O=C1CNC(=O)/C1=C\N1CCCCC1`?
Bst PK mod: >57; YjeE inh: inactive

What do the screens show for `Cc1nn(-c2ccccc2)c(C)c1NC(=O)c1cccs1`?
Bst PK mod: >57; YjeE inh: inactive

What do the screens show for `CCn1c(-c2cc(Br)cc(OC)c2O)nc2cc(S(=O)(=O)N(C)C)ccc21`?
Bst PK mod: >57; YjeE inh: inactive

What do the screens show for `CC(=O)c1cccc(NC(=O)NCc2ccco2)c1`?
Bst PK mod: >57; YjeE inh: inactive

Results for COc1ccccc1CNC(=O)CSc1nc(-c2ccccc2)cn1N ?
Bst PK mod: >57; YjeE inh: inactive

Results for COc1ccccc1-c1noc(-c2cc(OC)c(OC)c(OC)c2)n1 ?
Bst PK mod: >57; YjeE inh: inactive

How did Cc1ccc(C2CC(c3ccccc3OC(F)F)Nc3ncnn32)cc1 (centres undefined) do in these assays?
Bst PK mod: >57; YjeE inh: inactive

How did CC(=O)N1CCc2cc(NC(=O)c3ccc(C)cc3)ccc21 do in these assays?
Bst PK mod: inconclusive; YjeE inh: inactive

What do the screens show for `Cc1nc(CC(=O)O)c(-c2ccccc2)s1`?
Bst PK mod: >57; YjeE inh: inactive

What do the screens show for `Cc1nc(SCC(=O)c2ccccc2)n[nH]1`?
Bst PK mod: >57; YjeE inh: inactive

What do the screens show for `Cc1n[nH]c(C)c1CCc1nc2c3ccccc3nc(SCC(N)=O)n2n1`?
Bst PK mod: inactive; YjeE inh: inactive

Results for Cc1ccc(C(=O)NCCNS(=O)(=O)c2ccccc2)cc1 ?
YjeE inh: inactive

What do the screens show for `O=C(c1ccco1)N1CCN(c2ncnc3scc(-c4cccs4)c23)CC1`?
Bst PK mod: >57; YjeE inh: inactive

Results for O=C1c2ccccc2C(Nc2cccnc2)N1Cc1ccc2c(c1)OCO2 (centres undefined) ?
YjeE inh: inactive

How did O=C(NCc1ccc2c(c1)OCO2)C1CC(=O)N(C2CCCC2)C1 (centres undefined) do in these assays?
Bst PK mod: >57; YjeE inh: inactive

How did O=C(NCc1ccco1)c1cnn2c(C(F)(F)F)cc(-c3ccccc3)nc12 do in these assays?
YjeE inh: inactive

Results for CC(C)(C)OC(=O)N1CCCC1C(=O)N1CCCC1C(=O)N1CCCC1C(=O)O (centres undefined) ?
Bst PK mod: >57; YjeE inh: inactive

Results for COCCn1c(CNc2ccc(F)cc2)nnc1SCC(=O)Nc1ccc(OC)cc1OC ?
Bst PK mod: >57; YjeE inh: inactive

A portion of the library; count on the stated rates, not on these rows.
